High-throughput results as filed in PubChem.
D2 potentiator = potentiates the human D2 dopamine receptor allosterically. potentiation, % (test concentration not listed). P14416. DiscoveRx D2 beta-arrestin cells, luminescence, 90 min; 100% = 57 uM dopamine signal. 0.23% of 360,000 active. AID 624464; active = potentiation of 50% or more; inconclusive = 30% to 50%; inactive = 30% or less;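 also: compound concentration not given in the record; tested on top of an EC20 dose of dopamine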
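PathHunter beta-arrestin assay in DiscoveRx D2 cells. Compounds were added with an EC20 of dopamine (50 nM final) for 90 min at 37 deg C. Luminescence was read 1 h after detection reagent, with 57 uM dopamine as the EC100 control.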
TRPV1 PAM = enhances activation of the human vanilloid receptor TRPV1; Q8NER1; TRPV1-expressing cells, Fluo-8 calcium influx, capsaicin EC20 potentiation; host cell line not named in the record; control for the full effect not named in the record; potentiation, % at 8.33 µM; 0.02% of 320,000 active; active means potentiation above 80%; inconclusive means 30% to 80%; inactive means below 30%; also: 0% is about no effect
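TRPV1-expressing cells were cultured overnight at 35.5C and loaded with Fluo-8 calcium dye for 40 to 90 min at room temperature. After a 10 s baseline, compound was added and calcium influx was read kinetically for 3 min (ex 480/em 520 nm).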
Six1-Eya2 inh = Six1/Eya2 interaction inhibition; 0.56% of 360,000 active; Q15475+O00167; activity change, % (test concentration not listed); AlphaScreen GST-Six1/His-Eya2 binding, biochemical; stronger effect = lower value; control for the full effect not named in the record; in the data active = activity change below about -65%; inconclusive = about -30% to -65%; inactive = above about -30%; also: % is scaled to controls: 0 for no effect and ±100 for the full control effect; compound concentration not given in the record
Target sequence (O00167 whole entry, looked up): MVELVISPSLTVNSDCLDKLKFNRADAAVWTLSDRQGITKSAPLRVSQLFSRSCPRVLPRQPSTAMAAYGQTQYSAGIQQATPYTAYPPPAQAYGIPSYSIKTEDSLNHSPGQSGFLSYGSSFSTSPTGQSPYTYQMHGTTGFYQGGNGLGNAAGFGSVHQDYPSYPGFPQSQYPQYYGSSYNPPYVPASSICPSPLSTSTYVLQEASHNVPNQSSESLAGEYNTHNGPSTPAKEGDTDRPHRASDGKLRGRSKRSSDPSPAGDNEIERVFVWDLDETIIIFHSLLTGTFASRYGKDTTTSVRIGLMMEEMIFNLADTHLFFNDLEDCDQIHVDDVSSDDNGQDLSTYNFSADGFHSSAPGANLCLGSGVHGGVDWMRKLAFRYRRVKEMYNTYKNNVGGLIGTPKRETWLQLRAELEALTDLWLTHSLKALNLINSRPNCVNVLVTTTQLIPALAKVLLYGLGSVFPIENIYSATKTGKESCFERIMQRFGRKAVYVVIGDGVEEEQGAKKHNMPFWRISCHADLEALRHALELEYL
Target sequence (Q15475 whole entry, looked up): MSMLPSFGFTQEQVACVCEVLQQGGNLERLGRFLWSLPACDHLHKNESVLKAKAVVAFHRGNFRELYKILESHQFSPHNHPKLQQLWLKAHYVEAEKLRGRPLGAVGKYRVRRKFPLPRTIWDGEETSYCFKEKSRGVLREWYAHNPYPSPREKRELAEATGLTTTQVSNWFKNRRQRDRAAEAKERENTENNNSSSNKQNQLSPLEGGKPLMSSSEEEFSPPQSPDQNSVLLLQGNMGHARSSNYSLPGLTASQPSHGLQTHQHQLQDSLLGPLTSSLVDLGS
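Six1/Eya2 binding was read as AlphaScreen signal after compounds were pinned into GST-Six1 plus His-tagged Eya2 (5X stock 250/500 nM) in pH 8.0 Tris/NaCl/TCEP buffer, beads added, then incubated 1 h, 37 C, dark.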
CtBP-E1A inh = CtBP/E1A binding inhibition; AlphaScreen GST-E1A/His-CtBP binding, 1536-well; stronger effect = lower value; control for the full effect not named in the record; activity change, % (concentration not given with the values); 0.49% of 340,000 active; AID 651724; in the data active means activity change below about -65%; inconclusive means about -30% to -65%; inactive means above about -30%; also: % is scaled to controls: 0 for no effect and ±100 for the full control effect
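AlphaScreen with 125 nM GST-E1A and 125 nM His-CtBP (5X stocks) in Tris pH 8.0, 300 mM NaCl, BSA, Tween 20, TCEP. Compounds preincubated 2 h at 37 deg C, then glutathione donor/nickel acceptor beads added for 1 h at 37 deg C in dark.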
TRPML1 ag = human mucolipin-1 channel agonism. 0.12% of 410,000 active. activation, % (test concentration not listed). Q9GZU1. AID 624414. TRPML1-expressing cells, Ca2+ dye fluorescence, FDSS; host cell line not named in the record; reference of the full effect not given here; in the data active = activation above about 50%; inconclusive = about 30% to 50%; inactive = below about 30%; also: 0% is about no effect; the text of the record puts the active cut at 80%
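TRPML1-DL cells, Tet-induced overnight (~16 h, 37 degrees C), loaded 45-90 min at room temperature with Ca8 no-wash calcium dye plus quencher. FDSS fluorescence: 10 s baseline, compound pin-transfer, 110 s agonist read, then EC80 54-4 (4uM final) and 110 s antagonist read.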
TRPML1 inh = inhibitors of human TRPML1 channel | TRPML1-inducible cells, Ca2+ dye fluorescence, FDSS; stronger effect = lower value; inhibition of EC80 agonist-evoked calcium signal | 0.02% of 390,000 active | activity change, negative = inhibition, % (no concentration beside the values) | Q9GZU1; in the data active means activity change below about -50%; inconclusive means about -30% to -50%; inactive means above about -30%;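 also: stimulus is agonist 54-4 at its EC80 concentration; % is scaled to controls: 0 for no effect and ±100 for the full control effect; compound concentration not given in the record; the text of the record puts the active cut at -80%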
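Calcium fluorescence in TRPML1-DL cells induced overnight with Tet: a 110 s read after compound pin addition, then a 110 s antagonist read after challenge with 54-4 at 4 uM final (EC80).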
* hit, by the source's call; ? = inconclusive; nt = not tested or not shown; & = joins results of further samples. This is a random part of the collection (roughly 0.95% active in at least one column).

Molecule	D2 potentiator	TRPML1 inh	CtBP-E1A inh	Six1-Eya2 inh	TRPML1 ag	TRPV1 PAM
CCCCn1c(N)c(N(CC(C)C)C(=O)c2cc(S(=O)(=O)N3CCOCC3)ccc2Cl)c(=O)[nH]c1=O	-14	10	-2	-1	-0.9	7
CC(C)c1ccc(C(=O)Nc2ccc(S(=O)(=O)NC3=NCCCCC3)cc2)cc1	-25	-8	-7	-20	-0.2	nt
CC(C)C[C@@H](CN1C(N)=NC[C@@H]1C)NC(=O)CC12CC3CC(CC(C3)C1)C2	-7	-5	4	-3	-0.6	nt
CCCc1nc(N)c(C#N)c(N)c1C#N	6	-6	-5	7	0.0	-11
CC(=O)Nc1ccc2nc(NC(=O)c3cccs3)sc2c1	2	-1	-11	6	-0.1	4
Cc1ccc(C)c(OCC(=O)Nc2nonc2NC(=O)COc2cc(C)ccc2C)c1	1	16	-9	-8	0.6	-4
COCCNC(=O)CNC(=S)N(CCCN1CCOCC1)Cc1cccs1	0	26	-5	-6	0.3	-1
COc1cc(OC)cc(-c2c(-c3ccc(F)cc3)c3cc(-c4cccc5[nH]ccc45)ccc3n2C)c1	-6	-15	-18	-8	0.1	-6
C=CCn1c(=O)c2ccc(C(=O)NCc3ccccc3)cc2n(Cc2ccc(Cl)cc2)c1=O	-18	-4	-8	-1	2.8	14
COc1ccc(Cl)cc1-c1cc(C(=O)NCc2cccs2)[nH]n1	-13	nt	-20	7	-0.6	nt
COc1cccc(C(=O)NCC(=O)N2CCC3(CC2)NCCc2[nH]cnc23)c1	-14	5	2	2	-0.5	0
CS(=O)(=O)c1nncn1-c1ccccc1	-3	27	5	9	0.7	16
CN(CC(=O)Nc1cccc2ccccc12)C(=O)c1ccc(F)cc1F	0	2	13	11	-0.1	0
CCOC(=O)C1CCCN(C(=O)COc2ccc(C(=O)c3ccc(F)cc3)cc2)C1 (stereo not given)	-1	16	10	1	0.8	nt
Cc1cc(C)c(S(=O)(=O)Nc2nnc(C(C)C)s2)c(C)c1	18	nt	nt	-6	nt	5
O=C(CCNS(=O)(=O)c1ccc(Br)cc1)N1CCN(c2ccccc2O)CC1	0	-14	-4	2	-0.9	6
COc1ccc(C(=O)n2nc(-c3ccc(OC)cc3)nc2N)cc1	-1	44	0	-8	-0.8	0
CCC(=O)Nc1nc(C)c(C(=O)N2CCCCC2)s1	8	-4	1	5	0.9	2
COCCOC1CCN(C(=O)c2cc(COc3ccc(-n4cncn4)cc3)on2)CC1	5	18	2	1	-0.3	-4
CC(C)CNC(=O)CC(c1ccccc1)c1c(O)ccc2ccccc12 (stereo not given)	11	-6	-1	0	-0.6	0
CC(C)=CCC(C)(C)CNC(=O)NC1CCCCC1	4	44	0	-1	-0.7	1
COC(=O)c1cc(C(C)=O)c(C)[nH]c1=O	-5	12	16	-1	-0.3	3
Nn1c(SCC(=O)N2CCc3ccccc3C2)nnc1-c1cccs1	-11	-1	-2	0	-1.6	20
O=C(C[n+]1cc(-c2ccc(Cl)c(Cl)c2)n2c1CCC2)OCc1ccccc1	-32	2	-13	-8	-0.8	-5
c1cnc2ccc(C(c3nnnn3C3CCCCC3)N3CCN4CCCC4C3)cc2c1 (stereo not given)	-16	5	7	0	0.2	-3
O=C(CN1CCOCC1)Nc1ccccc1Cl	-13	28	21	6	0.1	1
CCN(c1ccccc1)S(=O)(=O)c1ccc(C(=O)Nc2nccs2)cc1	-4	-8	-1	-3	1.0	-15
CC(=O)Nc1ccc(S(=O)(=O)N2CCN(S(=O)(=O)c3ccc(F)c(F)c3F)CC2)cc1	-1	15	nt	2	0.9	-19
COc1ccc(Nc2nc(C(=O)N3CCc4cc(OC)c(OC)cc4C3)cs2)cc1	4	12	?	-11	3.4	-13
COc1cc(C(=O)OCC(=O)N(C)C)cc(NC(=O)c2ccco2)c1OC	1	37	2	-2	0.6	-20
O=C(NCCc1ccccc1)C1CCCN(c2nc3ccccc3s2)C1 (stereo not given)	-3	3	7	-2	-0.5	0
O=C(CCCCCN1C(=O)c2ccccc2C1=O)Nc1ccc(F)cc1	-20	-19	1	9	0.7	-18
CCc1cc(C(N)=S)ccn1	4&-15	15&-7	1&1	3&6	-0.8&-0.3	4
CCn1c(/C=C/c2c(C)[nH]c3ccccc23)nc2ccccc2c1=O	-8	-2	7	3	0.7	9
O=C(O)c1ccc(NS(=O)(=O)c2ccc3c(c2)OCCCO3)cc1	2	-4	8	7	-0.1	2
Cc1ccc(C)c(N2CCN(C(=O)c3ccc(N4CCOCC4)c([N+](=O)[O-])c3)CC2)c1	-4	10	-27	-18	2.1	-8
CN(CC(=O)Nc1ccccc1Br)C(=O)c1ccccc1Cc1ccccc1	1	-10	17	14	3.2	-1
O=C(CN1CCN(S(=O)(=O)c2ccc(Cl)c(Cl)c2)CC1)N1CCCC1	-16	-15	-4	7	-0.1	-3
COc1ccc(OC)c(CNC(=O)C2CCCN(c3ncnc4c3nc3n4CCCCC3)C2)c1 (stereo not given)	7	-16	1	-4	1.4	4
O=C(O)c1ccc(-c2cccc(Cl)c2)o1	-12	8	-4	-1	0.4	nt
Cc1ccc(N2CN=c3s/c(=C\c4ccccn4)c(=O)n3C2)cc1	-13	-6	-4	-5	-0.6	11
Cc1n[nH]c(C)c1S(=O)(=O)N1CCc2ccccc2C1	-12	-4	3	0	-0.5	28
CCOc1ccc(N(CC(=O)N2CCC(Cc3ccccc3)CC2)S(C)(=O)=O)cc1	-7	41	-11	-6	3.2	6
O=C(Nc1ccccc1)Nc1ccccc1	-16	nt	5	6	nt	nt
COC(=O)c1c(C)[nH]c(C(=O)OCC(=O)NC(C)(C)C)c1C	-17	4	-2	2	0.0	14
CCCC(=O)N1CCC1(C)C(=O)Nc1cc(OC)c(OC)c(OC)c1 (stereo not given)	-2	nt	5	0	-0.7	nt
CCC(C)NC(=O)Nc1ccc(C)cc1C (stereo not given)	-3	7	nt	5	1.0	3
O=C(c1cnc2n(c1=O)CCS2)N1CCCc2ccccc21	-5	-15	-1	6	0.0	2
CN1CCc2c(sc(NC(=O)C3COc4ccccc4O3)c2C(N)=O)C1 (stereo not given)	-36	7	0	-1	0.9	4
Cc1ccccc1OC(C)C(=O)NCCCN1CCOCC1 (stereo not given)	-4	4	2	1	0.6	7
O=C(NCCSc1c(-c2ccccc2)[nH]c2ccccc12)c1cc2ccccc2oc1=O	-4	12	-28	-29	-0.8	?
Cc1ccc(NS(=O)(=O)c2ccc(C(=O)NCCCN3CCCC3=O)cc2)cc1C	7	6	12	5	0.3	12
Cc1nc2ccccc2c2c1C(=O)N(Cc1cccnc1)C2=O	1	1	-5	-12	-0.3	-5
O=C(NC(Nc1cc(C(F)(F)F)ccc1Cl)C(=O)c1ccccc1)c1ccccc1 (stereo not given)	-3	25	1	8	0.2	3
Cc1c(C)c(C)c(S(=O)(=O)NCCc2ccccn2)c(C)c1C	-14	2	-1	0	2.8	-9
CCc1cc(=O)oc2c(CNCc3ccccc3F)c(O)c(Cl)cc12	0	5	nt	11	0.6	-14

The closing 2 records of the section before come first, to join the parts:
Molecule	D2 potentiator	TRPML1 inh	CtBP-E1A inh	Six1-Eya2 inh	TRPML1 ag	TRPV1 PAM
Cc1c(C)c(C)c(S(=O)(=O)NCCc2ccccn2)c(C)c1C	-14	2	-1	0	2.8	-9
CCc1cc(=O)oc2c(CNCc3ccccc3F)c(O)c(Cl)cc12	0	5	nt	11	0.6	-14
CC1(C)CC2(CCO1)OC(=O)CC2C(=O)Nc1ccc(Cl)cc1[N+](=O)[O-] (stereo not given)	12	-4	-1	5	-0.1	20
Cc1ccc(-n2c([S-])c(C(=O)NC(C)c3ccccc3)[n+]3ccccc23)cc1 (stereo not given)	-8	-2	-1	-5	-0.1	5
OC(C#Cc1ccccc1)(c1ccccc1)c1ccccc1	-7	6	15	1	0.0	nt
CC(=O)N1CCN(C(=S)c2ccc(-c3ccc(Cl)cc3)o2)CC1	0	-1	6	-18	0.6	-19
Cc1nc(Nc2cccc(C(C)O)c2)c2nnn(Cc3ccc(F)cc3)c2n1 (stereo not given)	6	14	-5	-2	-0.4	-1
Cc1ncn2cc(-c3ccc(Cl)cc3Cl)[nH]c(=O)c12	1	12	0	1	0.0	4
Cc1ccccc1NCC(=O)N/N=C\c1ccc([N+](=O)[O-])s1	-1	18	nt	-1	0.0	-1
O=C(Cn1cnc2c(NCc3ccccc3)ncnc21)NCCc1cc2ccccc2[nH]1	-6	-15	0	-7	0.2	nt
COCCNC(=O)CSc1nc2cc3c(cc2c(=O)n1CCCC(=O)NCc1ccc(OC)cc1)OCO3	-5	35&-21	-10	-9	0.9&2.0	1
C/C(=N\Nc1nc(C)c(C)s1)c1ccc([N+](=O)[O-])cc1	22	-11	-3	-15	0.4	-16
COCCn1c(=NC(C)=O)sc2cc([N+](=O)[O-])ccc21	-9	-14	4	12	-0.4	25
Cc1c(CC(=O)N2C[C@H]3C[C@@H](C2)c2cccc(=O)n2C3)c(=O)oc2cc3occ(C(C)(C)C)c3cc12	-27	nt	0	1	nt	5
CC(=O)Nc1ccc(NC(=O)CS(=O)(=O)c2cn(CC(=O)N3CCC(C)CC3)c3ccccc23)cc1	-16	-2	-4	-4	0.0	nt
CC(=O)Nc1ccc(NC(=O)COC(=O)CCc2nc3ccccc3s2)cc1	1	3	-1	0	-0.1	4
C=CCn1c(SCC(=O)c2c(N)n(CCC)c(=O)n(C)c2=O)nnc1-c1ccncc1	2	4	-12	-2	0.2	3
CC1(C)Cc2ccccc2C(N/N=C/c2ccc([N+](=O)[O-])cc2)=N1	-5	-25	-11	-18	4.4	-1
O=c1/c(=C\c2ccc3c(c2)OCO3)sc2n1CCCN=2	-15	0	0	2	-1.1	-17
Cc1cc(C)c(NC(=O)C2CC(=O)N(C(C)C)C2)c(C)c1 (stereo not given)	1	-10	nt	-3	-0.9	0
CCC(=O)N1CCN(CCN=CC2=C(O)CC(c3ccc(OC)cc3)CC2=O)CC1 (stereo not given)	-1	22	3	11	1.1	?
COc1cccc(-n2c(SCC(N)=O)nnc2-c2c[nH]c3ccccc23)c1	0	14	-9	-2	-0.8	?
CCN(CC)c1ccc2cc(C=O)c(=O)oc2c1	-13	-22	3	1	113*	-3
COc1cccc(C(O)c2nc(-c3cnn(C)c3)cs2)c1 (stereo not given)	3	98	-4	2	2.9	nt
Cc1cc(NC(=O)CSc2nnc(-c3ccc(Cl)s3)o2)no1	-21	-16	-93*	-87*	0.5	12
